# Screens as filed in PubChem.
# Methyltransferases = Primary Screen for Target Class Profiling of Small Molecule Inhibitors of Methyltransferases | purified enzyme, MTase-Glo SAH luminescence; active compounds read low | calls only at 40 µM | hit rate 3.9% among 25,000; active = -50% or lower on at least one of six enzymes; inconclusive = the cases between; inactive = as a rule above -30% on all six;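 further: enzymes were COMT GAMT GNMT HNMT NNMT and PNMT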
#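 Each enzyme was reacted with SAM and its substrate, with compounds tested once at 40 uM; SAH formed was read by MTase-Glo luminescence.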
# Calls only; i = inactive; ? = inconclusive; + = active, no number. On the % scale 0 is the no-effect control and ±100 the full control effect. Some of the compounds tested; the hit share may differ from the screen's.
SMILES,Methyltransferases
CCOC(=O)C1CCN(C(=O)CCn2ccc3cc(S(=O)(=O)N4CCCCC4)ccc32)CC1,i
Brc1cc2c(cc1[C@H]1Nc3ccccc3[C@H]3C=CC[C@H]31)OCO2,i
CCc1nc2c(c(NCCn3nc(C)c(CC)c3C)n1)CCNCC2,i
CN1CCN(CCNC(=O)c2cc(-c3ccccc3)cn2C)CC1,i
CC/C(=C(/CC)c1ccc(O)c(CN(CC)CC)c1)c1ccc(O)c(CN(CC)CC)c1,?
O=C(NCCc1nc2cccnc2n1-c1ccccc1)c1cccnc1,i
COc1ccc(CCCN2C(=O)O[C@@H]3CN(c4nc(C)cc(C)n4)C[C@@H]32)cc1,i
COc1ccc(-c2cnc(NC(=O)Cc3ccc(F)cc3)c3c2CCO3)cn1,i
Cc1ccccc1Cn1nc2n(Cc3ccccc3)c(=O)c3ccccc3n2c1=O,i
Cc1ccc(C(C(=O)O)N2CCC(C(=O)N3CCCC3)CC2)c(C)c1 (stereo unspecified),i
CC1CCN(S(=O)(=O)c2ccc3c(ccn3CC(=O)NC(C)c3ccccc3)c2)CC1 (stereo unspecified),i
COc1ccc(F)c(CN2CCC3(CCC(=O)N(CCO)C3)CC2)c1,i
COCCC1(N(C)C)CCN(S(=O)(=O)c2cccc(OC)c2)CC1,i
CCc1cc2c(cc3n2CC(C)(C(=O)NC2CCCCC2)N(c2ccc(C)cc2)C3=O)s1 (stereo unspecified),i
O=C(CCCc1nnc2n3nc(-c4ccccc4)nc3c3ccccc3n12)NCCc1ccccc1,i
O=C(N[C@@H]1CN(C(=O)Nc2ccccc2)CCC[C@H]1O)c1ccc(O)cc1,i
O=c1c2ccccc2n2c(=O)n(Cc3ccccc3F)nc2n1CCc1ccccc1,i
CCCn1c(=O)c2cc(Cl)ccc2n2c(SCC(=O)NCc3cccc(OC)c3)nnc12,i
CC1(C(=O)NCc2ccc(F)cc2)Cn2cnc(C(=O)NC3CC3)c2C(=O)N1C1CC1 (stereo unspecified),i
CCOC(=O)C(C)Oc1ccc2c(-c3ccccc3)cc(=O)oc2c1C (stereo unspecified),i
CCOC(=O)c1cc2n(n1)CC(C)(C(=O)NC1CCCCC1)N(CCc1cccs1)C2=O (stereo unspecified),i
CCOC(=O)[C@H](CCc1ccccc1)CC1(C(=O)N[C@H]2CCc3ccccc3N(CC(=O)O)C2=O)CCCC1,i
CCc1ccc(CNC(=O)Cn2ccc3cc(S(=O)(=O)N4CCCCC4)ccc32)cc1,i
O=C1NC2(CCN(Cc3cccc4ccccc34)C2)OCc2ccccc21 (stereo unspecified),i
O=S(=O)(c1ccc(F)cc1)N1CCC(Oc2ccc(-c3noc(C4CC4)n3)cc2)C1 (stereo unspecified),i

# The list goes on:
SMILES,Methyltransferases
O=C(NC1CCCC1)c1ccc2c(c1)n(Cc1cccc(F)c1)c(=O)c1ccnn12,i
CC(=O)NC1CCN(Cc2cn(-c3ccccc3F)nc2-c2cc(C)sc2C)C1 (stereo unspecified),i
CCCN1C(=O)c2c(C(=O)NCCN3CCOCC3)ncn2CC1(C)C(=O)NCCC(C)C (stereo unspecified),i
C=C1CCC2(OC1)OC1CC3C4CC=C5CC(O)CC(O[C@@H]6OC[C@@H](O)[C@H](O)[C@H]6O)C5(C)C4CCC3(C)C1(O)C2C (stereo partly specified),i
COc1ccc(-c2cc3n(n2)CC(C)(C(=O)NCc2ccccc2OC)N(c2cc(Cl)ccc2C)C3=O)cc1 (stereo unspecified),i
CCc1cccc(C)c1NC(=O)c1ncn2c1C(=O)N(C1CC1)C(C)(C(=O)NCc1ccc(F)cc1)C2 (stereo unspecified),i
CNC(=O)[C@@H](CC(C)C)N1CCC[C@H]1C(=O)N1CCN(C)CC1,i
O=C(N[C@H]1CCOC[C@H]1C1CCOCC1)c1ccoc1,i
COCC(=O)N1CC(C(=O)N2CCCCC2)[C@H](c2ccncc2)C1 (stereo partly specified),i
COC(=O)CCSCc1ccc(-c2onc(C)c2NC(=O)OC(C)c2ccccc2Cl)cc1 (stereo unspecified),i
CC1(C)C2CC[C@@]34CC(CC[C@H]3[C@]2(C)CC[C@@H]1O[C@@H]1O[C@H](CO)[C@@H](O)[C@H](O)[C@H]1O)[C@](C)(O)C4 (stereo partly specified),i
NC(Cc1c[nH]c2ccccc12)C(=O)NC(CCC(=O)O)C(=O)O (stereo unspecified),i
Cc1ccc(C)c(N2CCN(S(=O)(=O)c3cc4[nH]c(=O)[nH]c4cc3C)CC2)c1,i
Cc1ccc(CN2C(=O)c3ccc(-c4ccco4)n3CC2(C)C(=O)NC2CCCCC2)cc1 (stereo unspecified),i
O=c1cc(-c2ccc(O)cc2)oc2cc(OC3OC(CO)C(O)C(O)C3O)c(C3OC(CO)C(O)C(O)C3O)c(O)c12 (stereo unspecified),?
CCOc1ccc(CN2C(=O)c3cc4occc4n3CC2(C)C(=O)NC2CCCCC2)cc1 (stereo unspecified),i
COC(=O)c1ccc(NS(=O)(=O)c2ccc3c(c2)n(C)c(=O)n3C)cc1,i
Cc1ccc(CN2CCC(CNc3cc(C4CC(O)C4)ncn3)CC2)o1 (stereo unspecified),i
O=C(Cn1ccc2cc(S(=O)(=O)N3CCCCC3)ccc21)NCc1cccs1,i
CCNC(=O)[C@@H]1CCCN1C(=O)[C@H](CCCN=C(N)N)NC(=O)[C@H](CC(C)C)NC(=O)[C@@H](CC(C)C)NC(=O)[C@H](Cc1ccc(O)cc1)NC(=O)[C@H](CO)NC(=O)[C@H](Cc1c[nH]c2ccccc12)NC(=O)[C@H](Cc1cnc[nH]1)NC(=O)[C@@H]1CCC(=O)N1,?
Cn1cc(CN2CCOc3cc([S+](=O)([O-])Nc4ccccc4)ccc3C2)cn1,i
O=C1CN(Cc2c(F)cccc2Cl)S(=O)(=O)c2ccccc2N1Cc1cccc(F)c1,i
C#Cc1cccc(Nc2nc3cc(C(=O)O)ccc3c3cncnc23)c1,i
CC(=O)Nc1c2n(c3ccccc13)CC(C)(C(=O)NC1CCCCC1)N(Cc1ccccc1F)C2=O (stereo unspecified),i
Cc1ccc(CCNC(=O)c2cc3n(n2)CC(C)(C(=O)NC2CCCCC2)N(C)C3=O)cc1 (stereo unspecified),i

# (continued)
SMILES,Methyltransferases
CC1CCCCC1NC(=O)C1(C)Cn2c(cc3occc32)C(=O)N1c1ccc(Cl)cc1 (stereo unspecified),i
CC1(C(=O)NC2CCCCCCC2)Cn2c(ccc2-c2ccccc2)C(=O)N1CCN1CCOCC1 (stereo unspecified),i
CN(CCc1ccccn1)c1ncccc1CNC(=O)C1CCc2ccccc21 (stereo unspecified),i
CCCn1c(=O)c2ccc(C(=O)NC(C)C)cc2n2c(SCc3ccccc3C)nnc12,i
COc1ccc(O[C@H]2COCCN(S(=O)(=O)c3ccc(OC)cc3)C2)cc1,i
COC(=O)c1ccc([C@@H]2Nc3c(C)cccc3[C@@H]3C=CC[C@@H]32)cc1,i
COc1cccc(N2C(=O)NC(=NC3CCCC3)C23CCCN(C(=O)c2ccc(C)cc2)C3)c1 (stereo unspecified),i
CC(C)Cn1c(=O)c2ccccc2n2c(SCc3ccc(F)cc3Cl)nnc12,i
CC1CCN(S(=O)(=O)c2ccc3c(ccn3CCC(=O)NCCc3ccccc3Cl)c2)CC1,i
CCc1cc2c(cc3n2CC(C)(C(=O)NC2CCCCC2)N(Cc2ccccc2C)C3=O)s1 (stereo unspecified),i
CCC1c2ccc(C)n2CCN1C(=O)Nc1ccc(Br)cc1 (stereo unspecified),i
COc1ccccc1CC(=O)Nc1cccn2nc(C(C)C)nc12,i
Cn1c(=O)c2ccc(C(=O)NC3CCCC3)cc2n2c(=O)n(CC(=O)Nc3ccccc3F)nc12,i
Cc1oc(C(O)c2ccccc2)nc1C(=O)Nc1ccncc1 (stereo unspecified),i
CC(CN1C(=O)c2ccc(-c3ccccc3)n2CC1(C)C(=O)NC1CCCC1)c1ccccc1 (stereo unspecified),i
Cc1cccc(C2c3cccn3-c3sc4c(c3CN2C(=O)Nc2ccccc2)CCCC4)c1 (stereo unspecified),i
COC(=O)C[C@H]1CN(C(=O)OC(C)(C)C)CCN1,i
O=C(CCc1nnc2n(Cc3ccc(Cl)cc3)c(=O)c3ccccc3n12)NCCN1CCCC1,+
O=C(NCc1cccnc1)c1ccc2c(=O)nc3c(-c4ccc(Cl)cc4)n[nH]n3c2c1,i
O=c1[nH]c2cc(Br)c(S(=O)(=O)N3CCN(c4ccccc4F)CC3)cc2[nH]1,i
CCCn1c(=O)c2ccc(C(=O)NC(C)CC)cc2n2c(=O)n(CC(=O)c3ccccc3)nc12 (stereo unspecified),i
O=C(O)CCCCCC[C@H]1C(=O)NC(=O)N1CC[C@@H](O)C1CCCCC1,i
CCOc1ccc(CN2C(=O)c3cc(-c4cccs4)nn3CC2(C)C(=O)NC2CCCCC2)cc1 (stereo unspecified),i
Cc1cccc(CC(=O)N2CCCn3cc(-c4cccc(C#N)c4)nc32)c1,i
CCN1CCN(CCNC(=O)CN2CCCc3nc(C4CC4)ncc3C2=O)CC1,i

# 15 compounds out of the list, sorted by length of the SMILES, high to low:
SMILES,Methyltransferases
Cn1c(=O)c2ccc(C(=O)NC3CCCC3)cc2n2c(=O)n(CC(=O)Nc3ccccc3F)nc12,i
CCCn1c(=O)c2ccc(C(=O)NC(C)CC)cc2n2c(=O)n(CC(=O)c3ccccc3)nc12 (stereo unspecified),i
COc1cccc(N2C(=O)NC(=NC3CCCC3)C23CCCN(C(=O)c2ccc(C)cc2)C3)c1 (stereo unspecified),i
CC1(C(=O)NC2CCCCCCC2)Cn2c(ccc2-c2ccccc2)C(=O)N1CCN1CCOCC1 (stereo unspecified),i
O=C(NCc1cccnc1)c1ccc2c(=O)nc3c(-c4ccc(Cl)cc4)n[nH]n3c2c1,i
O=C(CCc1nnc2n(Cc3ccc(Cl)cc3)c(=O)c3ccccc3n12)NCCN1CCCC1,+
CC1CCCCC1NC(=O)C1(C)Cn2c(cc3occc32)C(=O)N1c1ccc(Cl)cc1 (stereo unspecified),i
Cc1cccc(C2c3cccn3-c3sc4c(c3CN2C(=O)Nc2ccccc2)CCCC4)c1 (stereo unspecified),i
CCCn1c(=O)c2ccc(C(=O)NC(C)C)cc2n2c(SCc3ccccc3C)nnc12,i
O=C(O)CCCCCC[C@H]1C(=O)NC(=O)N1CC[C@@H](O)C1CCCCC1,i
COc1ccc(O[C@H]2COCCN(S(=O)(=O)c3ccc(OC)cc3)C2)cc1,i
Cc1cccc(CC(=O)N2CCCn3cc(-c4cccc(C#N)c4)nc32)c1,i
CCN1CCN(CCNC(=O)CN2CCCc3nc(C4CC4)ncc3C2=O)CC1,i
CN(CCc1ccccn1)c1ncccc1CNC(=O)C1CCc2ccccc21 (stereo unspecified),i
CCC1c2ccc(C)n2CCN1C(=O)Nc1ccc(Br)cc1 (stereo unspecified),i

# The main list resumes; the two compounds before the break are reprinted first.
SMILES,Methyltransferases
Cc1cccc(CC(=O)N2CCCn3cc(-c4cccc(C#N)c4)nc32)c1,i
CCN1CCN(CCNC(=O)CN2CCCc3nc(C4CC4)ncc3C2=O)CC1,i
Cc1noc([C@@H]2CN(C(=O)c3cc(C4CC4)[nH]n3)C[C@H]2C(N)=O)n1,i
COCCC1(NC(=O)c2ccccc2)CCN(C(=O)c2ocnc2C)CC1,i
CCc1ccc(CNC(=O)Cn2ccc3cc(S(=O)(=O)N4CCC(C)CC4)ccc32)cc1,i
C[C@@H]1C[C@H](O[C@@H]2O[C@H](CO[C@@H]3OC[C@](O)(CO)[C@H]3O)[C@@H](O)[C@H](O)[C@H]2O)CC(C)(C)[C@H]1/C=C/[C@@H](C)O,i
Cc1[nH]c(/C=C2\C(=O)Nc3cc(-c4ccccc4)ccc32)c(C)c1CCC(=O)O,i
O=C(Cc1cccs1)NC1CC(c2cc(N3CCC(O)C3)ncn2)C1 (stereo unspecified),i
C=CC(C)(C)C12Nc3c(ccc4c3OC(C)(C)C=C4)C1(O)CC1C(=O)N3CCCC3C(=O)N12 (stereo unspecified),i
CCCCNC(=O)CCc1nnc2n(CCc3ccccc3)c(=O)c3ccccc3n12,i
Cc1occc1C(=O)N1CCC(CCC(=O)N2CCN(c3ccccc3)CC2)CC1,i
CNc1ccc(C)cc1C(=O)N1CCN(C)C2(CCN(C)CC2)C1,i
C=C1CC[C@H]2[C@@](C)(CCC(O)[C@@]2(C)CO)[C@@H]1/C=C/C(=C\C(=O)O)C(=O)O (stereo partly specified),i
CC1(C(=O)NC2CCCCCCC2)Cn2c(cc3occc32)C(=O)N1CCc1ccccc1 (stereo unspecified),i
O=C(c1sccc1Cl)N1CCn2nc(C(O)c3ccccc3)cc2C1 (stereo unspecified),i
NC(N)=NCCCCN=C(N)N,i
Cc1cc2c(cc3n2CC(C)(C(=O)NC2CCCCCCC2)N(CCc2ccc(Cl)cc2)C3=O)o1 (stereo unspecified),i
c1ccc(CCN(Cc2ccccc2)[C@H]2C[C@H]3CCOC[C@@]3(c3ccccc3)C2)cc1,i
COc1ccc(CN2C(=O)c3cc4ccccc4n3CC2(C)C(=O)NCc2ccccc2OC)c(OC)c1 (stereo unspecified),i
C=C(C)C(=O)O[C@H]1[C@H]2C(=C)C(=O)O[C@@H]2C[C@@H](C)[C@@H]2O[C@@H]2C(=O)[C@](C)(O)[C@@H]1OC(C)=O,i
CN1C(=O)c2cc(C(=O)NCc3ccc(Cl)cc3)nn2CC1(C)C(=O)NC1CCCCC1 (stereo unspecified),i
COc1cc(OC)c(C(=O)/C=C/c2ccccc2)c2c1C=CC(C)(C)O2,?
O=C1NC(Cc2c[nH]c3ccccc23)C(=O)NC1Cc1cnc[nH]1 (stereo unspecified),i
CCCn1c(=O)c2ccc(C(=O)NC(C)CC)cc2n2c(=O)n(Cc3ccc(Cl)cc3)nc12 (stereo unspecified),i
CC(NC(=O)c1ccccc1N)C(=O)O (stereo unspecified),i
COc1cccc(NS(=O)(=O)c2cc3c(cc2Cl)n(C)c(=O)n3C)c1,i
CC/C=C(\C(=O)N[C@@H]1C(=O)N2C(C(=O)OCOC(=O)C(C)(C)C)=C(COC(N)=O)CS[C@H]12)c1csc(N)n1,?
COC(=O)[C@@H]1CN(C(=O)Nc2ccccc2)CCN1C(C)=O,i
CC(C)S(=O)(=O)NC[C@H](C)c1ccc(-c2ccc(CCNS(C)(=O)=O)cc2)cc1,i
CCCN1C(=O)c2cc(C(=O)NCc3ccc(CC)cc3)nn2CC1(C)C(=O)NC1CCCC1 (stereo unspecified),i
